# Resorufin autofl – qHTS Assay for Spectroscopic Profiling in Resorufin Spectral Region; max dye-equivalent concentration, M; AID 588, 2007; Compound fluorescence, resorufin region 547/598 nm, buffer; stronger effect = higher value; 59,000 compounds, 0.04% hits; active = above 10 nM dye equivalent; inconclusive = 1 to 10 nM; inactive = 1 nM or less; a few of its hits are not listed in these tables; further: highest value over a series up to 38 µM
#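 Read-out: intrinsic compound fluorescence at ex 547/em 598 nm after 15 min at RT in pH 8.0 Tris (100 mM). Values expressed as resorufin-equivalent concentration from per-plate standard series.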
# TSHR ag – qHTS Assay for Agonists of the Thyroid Stimulating Hormone Receptor | Thyrotropin receptor (Homo sapiens), P16473 | HEK293-CNG-TSHR cells (CNG channel as cAMP sensor), membrane potential dye, cAMP | Potency, µM (titrated, usually from 57.1 µM), without a hit: at the top dose activation, actives largely listed as activators | AID 926, 2007 | 73,000 compounds, 0.48% hits; active = well fitted activation curve of enough size with the parental cells flat; inconclusive = any curve in the parental cells; inactive = parental cells flat and receptor cells flat or falling; further: potency means the concentration at half of the fitted maximal effect; % of control where 0% means no effect; weak receptor curves with flat parental cells got no call and are not listed
# Target sequence (P16473 whole entry, looked up): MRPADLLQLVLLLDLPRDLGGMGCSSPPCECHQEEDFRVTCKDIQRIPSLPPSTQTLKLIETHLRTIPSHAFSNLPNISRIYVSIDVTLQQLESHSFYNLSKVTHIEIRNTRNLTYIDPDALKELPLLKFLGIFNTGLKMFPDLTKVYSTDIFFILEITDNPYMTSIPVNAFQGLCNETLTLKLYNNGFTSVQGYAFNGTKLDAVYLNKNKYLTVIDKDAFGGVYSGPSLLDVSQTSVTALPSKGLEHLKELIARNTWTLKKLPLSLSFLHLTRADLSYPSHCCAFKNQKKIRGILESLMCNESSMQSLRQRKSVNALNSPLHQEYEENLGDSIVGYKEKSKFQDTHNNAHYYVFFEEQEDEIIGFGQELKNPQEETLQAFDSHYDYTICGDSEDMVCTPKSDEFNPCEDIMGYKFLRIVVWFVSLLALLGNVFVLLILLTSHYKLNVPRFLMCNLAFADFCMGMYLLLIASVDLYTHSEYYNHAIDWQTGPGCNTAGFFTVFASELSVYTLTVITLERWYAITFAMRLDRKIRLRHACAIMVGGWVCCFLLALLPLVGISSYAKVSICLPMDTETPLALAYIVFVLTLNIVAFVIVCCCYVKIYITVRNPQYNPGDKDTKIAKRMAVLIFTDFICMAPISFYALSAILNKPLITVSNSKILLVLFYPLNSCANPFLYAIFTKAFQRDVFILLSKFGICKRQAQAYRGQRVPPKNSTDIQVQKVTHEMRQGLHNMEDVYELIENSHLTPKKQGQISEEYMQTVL
#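 cAMP rise detected as CNG-channel membrane depolarization by fluorescent dye (emission 590 nm), 30 min after compound, following 60 min dye loading containing 100 uM RO 20-1724 at room temperature. Cells: TSHR/CNG HEK 293, with parental CNG HEK 293 as control.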
# AID923 – qHTS Assay for Allosteric/Competitive Inhibitors of Caspase-1: Spectroscopic Profiling in AFC Spectral Region. compound fluorescence, AFC spectral region (405/520 nm); almost no hit is shown here. 75,000 compounds, 1.1% hits. AID 923, 2007. Potency, µM (titrated, usually from 57.5 µM), for the others: at the top dose fluorescence increase, hits mostly activators; active means well fitted activation curve with a large enough effect; inconclusive means small, poorly fitted or top-dose-only effect;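 further: potency means the concentration at half of the fitted maximal effect; 0% is about no effect; scaled to a free AFC standard on each plate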
#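 Titrations up to 57 uM read every 20 sec for 3 min (405/520 nm) with 50 nM caspase 1 and 5 uM Ac-WEHD-AFC, pH 7.5 HEPES buffer. Fluorescence-vs-time intercept gave baseline, scaled against on-plate AFC standard.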
# A488 autofl – qHTS Assay for Spectroscopic Profiling in A488 Spectral Region. compound autofluorescence, A488 spectral region, dye equivalency; stronger effect = higher value. max dye equivalency, M. 59,000 compounds, 0.1% hits. AID 591, 2007; active = above 10 nM dye equivalent; inconclusive = 1 to 10 nM; inactive = 1 nM or less; about half of its hits are not listed in these tables;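 further: highest value over a series up to 38 µM; compound alone in buffer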
#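 Compound autofluorescence was read in 100 mM Tris pH 8.0 after 15 min at room temperature, ex 480 nm/em 540 nm. Intensities were converted to A488 dye-equivalent concentration using an on-plate six-point A488 standard curve.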
# A647 autofl – qHTS Assay for Spectroscopic Profiling in A647 Spectral Region | max dye-equivalent concentration, M | Compound fluorescence, A647 channel (570/671 nm), Tris buffer | 59,000 tested, under 10 active | AID 592, 2007; active means above 1 µM dye equivalent; inconclusive means 0.1 to 1 µM; inactive means 0.1 µM or less;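 further: values scaled relative to a standard on each plate; highest value over a series up to 38 µM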
#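 Compounds pinned into 100 mM Tris pH 8.0, 15 min at room temperature, then read with 570 nm excitation/671 nm emission filters. Fluorescence normalized to an on-plate six-point Alexa 647 standard curve, giving dye-equivalent concentration per compound concentration.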
# Starred values were filed as active, the others as inactive; i = inactive; u = inconclusive; x = no result given; & = joins results of further samples; [ ] = another dose, or the depositor's remark. An excerpt; rates above refer to the full screens.
SMILES,Resorufin autofl,TSHR ag,AID923,A488 autofl,A647 autofl
COc1cccc(-c2cc3nc4c(c(N5CCC6(CC5)OCCO6)n3n2)CCCC4)c1,i,u,3.3%,i,2.53e-08
Cc1noc(C)c1COC(=O)CN(C)S(=O)(=O)c1ccc(Cl)cc1,i,-3.8%,-4.0%,i,2.47e-08
COc1ccc(N2CCN(c3nc4c(c(=O)n(C)c(=O)n4C)n3CCCc3ccccc3)CC2)cc1,i,-6.4%,-1.3%,i,8.1e-09
Cc1noc(C)c1-c1nc(NCCN2CCOCC2)c2ccccc2n1,i,3.1%,2.3%,i,1e-09
COc1cccc(C(=O)COC(=O)C(C)N2C(=O)c3ccccc3C2=O)c1 (stereo not given),x,15.9%[11.4 µM],-0.4%,x,x
COc1cc(OC)c(OC)cc1CN(C)CCc1ccccn1,i,11.7%,0.5%,i,1e-09
O=C(CSc1nnnn1C1CCCCC1)Nc1cccc(NC(=O)c2ccco2)c1,i,-2.4%,-2.0%,i,3.51e-08
Nc1cccc2c(=O)[nH][nH]c(=O)c12,x,3.7%,-1.2%,x,x
CCOc1ccc2nc(-c3ccc(OC)c(OC)c3)cc(C(=O)O)c2c1,i,0.4%,1.8%,i,1e-09
Cc1cc(C(N)=O)c2ccccc2n1,i,0.2%,2.0%,i,2e-09
CCOC(=O)c1ccc(NC(=O)Cn2nnc(-c3ccccc3C)n2)cc1,i,-1.7%,2.3%,i,1e-09
COc1ccc(CNC(=O)COC(=O)c2n[nH]c3ccccc23)cc1,i,16.8%,-0.1%,i,1.72e-08
CC1=C(\C=C/C(C)=C/C=C\C(C)=C\C(=O)Nc2ccc(O)cc2)C(C)(C)CCC1,i,11.4%,x,i,8.9e-09
C=C(C)c1cccc(C(C)(C)NC(=O)NCC2CCCO2)c1 (stereo not given),x,19.2%,2.0%,x,x
COC(=O)c1sccc1NC(=O)c1csc(C)c1,i,x,1.4%,i,3.4e-08
O=c1cc(NC2CCCCCC2)[nH]c(=O)[nH]1,i,-5.7%,-1.0%,i,1e-09
CCCCOc1ccc(C(=O)NCC(=O)NCC(=O)OCC)cc1,i,x,x,i,1e-09
CCOc1ccc(C(C)=O)cc1COC(=O)C1=COCCO1,i,0.5%,1.5%,i,1.57e-08
O=C(Nc1ccccc1O)c1cc(S(=O)(=O)N2CCOCC2)c(Cl)cc1Cl,x,-7.9%,-1.4%,x,x
COCCCNC(=O)C(Cc1ccccc1)NS(=O)(=O)c1ccc2c(c1)c(=O)n(C)c(=O)n2C (stereo not given),i,-2.2%,3.9%,i,4.8e-09
N#C/C(=C\c1ccc(O)c(O)c1)C(=O)Nc1ccccc1,i,-4.4%&-0.8%,1.9%,i,1.4e-09
[O-][n+]1c2ccc3nonc3c2nn1-c1ccccc1Cl,x,-10.7%,-1.3%,x,x
COc1ccccc1NC=C1C(=O)OC2(CCCCC2)OC1=O,i,7.6%,-1.8%,i,9e-09
C=CCOc1ccc(CN(C)CC(=O)N(CC(C)C)c2c(N)n(CC(C)C)c(=O)[nH]c2=O)cc1,i,2.7%,0.1%,i,1e-09
Cc1ccc(C)c2[nH]c(=O)c(CN(Cc3nnnn3C3CCCCC3)CC3CCCO3)cc12 (stereo not given),i,u,1.7%,i,1.7e-09
COc1cccc(-c2cc(C(F)(F)F)nc(NCc3ccco3)n2)c1,i,u,1.3%,i,3.29e-08
Cc1c(C(=O)N2CCOCC2)[nH]c2c1C(=O)CC(c1ccc(Cl)cc1)C2 (stereo not given),i,-3.4%,-2.8%,i,3.88e-08
Cn1ncc(N=Cc2c(O)ccc3ccccc23)c1C(=O)N1CCOCC1,i,x,x,i,1e-09
O=C(Nc1ccc2nc3n(c(=O)c2c1)CCCCC3)c1ccccn1,x,-6.3%,0.6%,x,x
CCc1ccc(OCC(=O)NCCN(C)C)c(Br)c1,i,5.6%,1.8%,i,1.79e-08
O=C(Cc1cn2ccsc2n1)NCCc1ccc(F)cc1,i,u,-0.8%,i,1e-09
C=CCn1c(SCC(=O)NCC(=O)OCC)nnc1-c1ccccn1,i,13.1%,-0.6%,i,2.21e-08
CN(C)C(=O)Oc1cccc([N+](C)(C)C)c1,i,-6.9%[25.6 µM],-1.7%,i,1e-09&2.42e-08&3.73e-08&3.8e-09
CCc1ccc(NC(=O)c2ccc3c(c2)C(=O)N(Cc2ccco2)C3=O)cc1,x,u,1.5%,x,x
CCSc1nc(=O)n(-c2ccccc2)c(C)c1C(C)=O,x,-1.9%[11.4 µM],-0.5%,x,x
Cc1ccc(-c2nc3cc(N)ccc3o2)c(C)c1,i,18.2%,0.3%,i,4.7e-09
O=C(COc1ccc(Cl)cc1)N1CCN(c2ncccn2)CC1,i,-3.2%,-0.3%,i,1e-09
CC1=CC(C)C2C(=O)N(CCC[N+](C)(C)C)C(=O)C2C1 (stereo not given),i,10.6%,0.1%,i,1.81e-08
Cc1c(C(=O)NCCc2ccccc2)oc2ccc(S(=O)(=O)N3CCC4(CC3)OCCO4)cc12,i,u,-1.1%,i,8.6e-09
C[C@H]1O[C@@H](CC(=O)O)Cc2c1c(O)c1c(O)cc(-c3cc(=O)c4c(=O)c5c(c(=O)c=4c3=O)C[C@H](CC(=O)O)O[C@@H]5C)c(O)c1c2O,i,x,-1.2%[11.5 µM],i,1e-09
CN1CCc2cc3c(cc2C(=O)Cc2ccc4c(c2C1)OCO4)OCO3,i,u,2.4%,i,2.37e-08
O=C(O)c1ccc(OCc2occc2C(=O)O)cc1,i,3.7%,-1.5%,i,3.8e-09
Cc1ccccc1Nc1nn2c(=O)c3ccccc3nc2s1,i,29.4%,0.5%,i,3.4e-09
CN(Cc1cccs1)S(=O)(=O)c1cccs1,i,7.4%,-1.6%,i,4.11e-08
COc1ccc(C)cc1NC(=O)CSc1nnc(-c2ccco2)n1Cc1ccco1,i,25.2%,0.3%,i,1e-09
COc1ccc(C#CC2C=CC(Oc3cc(C)cc(C)c3)C(CO)O2)cc1 (stereo not given),x,10.8%[11.4 µM],-0.9%[11.5 µM],x,x
O=C(c1ccc(=O)[nH]c1)N(Cc1ccco1)C1(C(=O)NC2CCCCC2)CCCCC1,i,u,-3.1%,i,7e-09
NC(=O)C1CCN(C(=O)CSc2nc3c(c(-c4ccccc4)n2)CCCC3)CC1,i,-3.1%,-2.4%,i,1e-09
O=S(=O)(c1ccccc1)N1CCC2(CC1)CN(C(c1ccccc1)c1ccccc1)C2,i,15.2%,-0.9%,i,2.3e-09
COc1cccc(C2C(C(=O)c3cc4ccccc4o3)=C(O)C(=O)N2c2cc(C)on2)c1OC (stereo not given),i,13.9%,0.3%,i,2.68e-08
Nc1ncn([C@@H]2O[C@@H](CO)[C@@H](O)[C@H]2O)c(=O)n1,i,1.3%,x,i,1e-09
CC(C)CC(NS(=O)(=O)c1ccc2c(c1)oc(=O)n2C)C(=O)NCc1cccnc1 (stereo not given),x,2.6%,-1.6%,x,x
COc1ccc(C(=O)N2CCC[C@@]3(CCN(Cc4ccncc4)C3)C2)cc1,i,-1.0%,0.6%,i,2.4e-09
COC(=O)c1ccccc1NC(NC(=O)c1ccco1)C(=O)c1ccccc1 (stereo not given),x,20.3%,1.5%,x,x
COc1ccc(N(C(C)=O)S(=O)(=O)c2cc(OC)ccc2OC)cc1,i,6.4%,-0.5%,i,1e-09
COc1ccc(C2(NC(C)=O)CCN(C(=O)CCC(=O)O)CC2)cc1,i,10.4%,-1.6%,i,1.39e-08
O=C(Nc1ccc2c(c1)OCO2)c1ccc(Br)s1,i,-3.9%,-1.8%,i,4.42e-08
CCOc1ccc(OCC)c(NC(=O)CN(C)S(=O)(=O)c2cccc3nsnc23)c1,i,1.1%,0.5%,i,2.3e-09
COC(=O)CC1=C(C)C(=O)CC2C(C)(C)CCCC12C (stereo not given),x,u,-2.4%,x,x
O=C(O)CC1=C(O)C(=O)N(c2ccccc2)C1c1ccccc1 (stereo not given),x,2.6%,3.2%,x,x

# (further entries)
SMILES,Resorufin autofl,TSHR ag,AID923,A488 autofl,A647 autofl
CCN(CC)CCN1C(=O)C(=O)/C(=C(/O)c2ccc(OC)cc2)C1c1ccco1 (stereo not given),i,x,x,i,1e-09
O=S(=O)(Nc1ccc(F)cc1)N1CCCCCC1,i,-2.0%,-2.6%,i,3.21e-08
COc1ccccc1NC(=O)CCN1C(=O)C2CC=C(Cl)CC2C1=O (stereo not given),i,5.6%,0.5%,i,1e-09
CC1CC(C)CN(c2ncc3c(n2)CC(c2ccc(Cl)cc2)CC3=O)C1 (stereo not given),i,u,1.6%,i,2.6e-09
CC(=O)N(C)c1ccc(NC(=O)c2ccccc2C(=O)O)cc1,i,-11.4%,1.7%,i,3.9e-09
CCOC(=O)N1CCN(c2c(Nc3cc(C)[nH]n3)c(=O)c2=O)CC1,x,-1.0%,2.2%,x,x
Cc1cc(C)n(-c2ccc(C(=O)OCC(=O)NCc3ccco3)cc2)n1,i,2.5%,-0.1%,i,3.3e-08
c1cncc(-c2nnc(-c3ccco3)o2)c1,i,-2.1%,0.0%,i,1e-09
Clc1cccc(Cl)c1NC1=NCCN1,i,5.3%,-5.6%,i,2.44e-08&2.11e-08
CCOC(=O)c1cccc(NC(=O)Cn2cnc3c2c(=O)n(C)c(=O)n3C)c1,x,5.5%[11.4 µM],0.8%,x,x
O=C(CSc1nnc(COc2ccccc2)n1Cc1ccco1)NCc1ccco1,i,u,1.3%,i,1.8e-09
C=C[C@]1(C)C[C@H](OC(=O)CO)[C@]2(C)C3C(=O)CC[C@]3(CC[C@H]2C)[C@H](C)[C@H]1O (stereo not given in full),i,-5.9%[11.4 µM],-0.4%[11.5 µM],i,1e-09
Cc1ccc(SC(C)C(=O)Nc2ncn[nH]2)cc1 (stereo not given),i,0.2%,1.1%,i,1e-09
O=C1CC(=O)N(CCc2ccccc2)C(=O)N1CCc1ccccc1,i,-3.2%,-6.2%,i,4.1e-09
CC(C)(C)n1nnnc1CN1CCC(NC(=O)NC2CCCCC2)CC1,i,-1.5%[11.4 µM],-0.8%,i,1e-09
C[C@H](NCCC(c1ccccc1)c1ccccc1)c1ccccc1,i,21.7%[25.6 µM],2.1%[25.7 µM],i,4.79e-08
OC(CNc1nc2ccccc2s1)c1ccccc1 (stereo not given),i,-5.2%,0.7%,i,3.22e-08
CC(C)(C)NC(=O)CN(Cc1cccnc1)C(=O)c1csnn1,i,4.3%,0.5%,i,1e-09
Cc1cc(C)nc(N2CCCC(C(=O)NCCc3cccc(F)c3)C2)n1 (stereo not given),i,5.6%,-0.4%,i,3.4e-09
COCC(=O)/C=C1\Sc2ccccc2N1C,i,1.5%,-2.7%,i,1e-09
Cn1c(=O)c2c(nc(NCCc3ccccc3)n2Cc2ccccc2)n(C)c1=O,i,8.5%,-3.2%,i,3.16e-08

# 3 of these compounds, reformatted:
Compound | Resorufin autofl | TSHR ag | AID923 | A488 autofl | A647 autofl
CC(=O)N(C)c1ccc(NC(=O)c2ccccc2C(=O)O)cc1 | i | -11.4% | 1.7% | i | 3.9e-09
CCOC(=O)N1CCN(c2c(Nc3cc(C)[nH]n3)c(=O)c2=O)CC1 | x | -1.0% | 2.2% | x | x
Cc1cc(C)n(-c2ccc(C(=O)OCC(=O)NCc3ccco3)cc2)n1 | i | 2.5% | -0.1% | i | 3.3e-08
